# Assay outcomes (PubChem BioAssay)
# RGS16-Gao – regulators of human RGS16-Galphao interaction | O15492+P09471 | bead-based flow cytometry RGS16-Galphao binding, fluorescence; actives lie on both sides | binding response (% of control), % at 10 µM | actives 0.38% (n = 220,000) | AID 1441;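 active means below 25% or above 175%, edge rows of some plates excepted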;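 further: Galphao activated by GDP with aluminum fluoride before binding; 100% = wells without compound and 0% = beads without RGS; some results beyond the cut were filed as inactive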
# Insulin prom inh – TRM-6 insulin promoter activity inhibition | TRM-6 cells (human fetal islet line), insulin promoter-eGFP reporter, imaging; reporter expression induced with tamoxifen | inhibition, % at 2 µM | actives 0.9% (n = 130,000);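 active means inhibition above the mean plus 3 SD, with well images judged a real hit on visual review, cut at about 60% in these data, passing the limit was not always enough; inconclusive means inhibition over the cutoff but images rejected on review; inactive means inhibition not above the cutoff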
# HSV augment – HSV replication enhancement. actives 0.005% (n = 220,000). HSV replication augmentation in cells, fold increase. AID 1956. maximum fold increase;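 active means peak rise of 1.5-fold or more in the series; inconclusive means self-fluorescent or not available for retest; tested in PC3 cells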;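 further: first round at 10 µM; read as green reporter fluorescence; hits show the peak of a series up to 25 µM; 1 = signal of infected wells without compound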
# PKD1 inh – blocks activity of human protein kinase D1; Q15139; PKD1 kinase fluorescence polarization assay; inhibition, %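 (about 10 µM by stock and volumes)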; actives 0.056% (n = 200,000);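 active means inhibition of 50% or more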;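 further: controls were vehicle for no effect and a reference inhibitor for full effect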
# Target sequence (Q15139 whole entry, looked up): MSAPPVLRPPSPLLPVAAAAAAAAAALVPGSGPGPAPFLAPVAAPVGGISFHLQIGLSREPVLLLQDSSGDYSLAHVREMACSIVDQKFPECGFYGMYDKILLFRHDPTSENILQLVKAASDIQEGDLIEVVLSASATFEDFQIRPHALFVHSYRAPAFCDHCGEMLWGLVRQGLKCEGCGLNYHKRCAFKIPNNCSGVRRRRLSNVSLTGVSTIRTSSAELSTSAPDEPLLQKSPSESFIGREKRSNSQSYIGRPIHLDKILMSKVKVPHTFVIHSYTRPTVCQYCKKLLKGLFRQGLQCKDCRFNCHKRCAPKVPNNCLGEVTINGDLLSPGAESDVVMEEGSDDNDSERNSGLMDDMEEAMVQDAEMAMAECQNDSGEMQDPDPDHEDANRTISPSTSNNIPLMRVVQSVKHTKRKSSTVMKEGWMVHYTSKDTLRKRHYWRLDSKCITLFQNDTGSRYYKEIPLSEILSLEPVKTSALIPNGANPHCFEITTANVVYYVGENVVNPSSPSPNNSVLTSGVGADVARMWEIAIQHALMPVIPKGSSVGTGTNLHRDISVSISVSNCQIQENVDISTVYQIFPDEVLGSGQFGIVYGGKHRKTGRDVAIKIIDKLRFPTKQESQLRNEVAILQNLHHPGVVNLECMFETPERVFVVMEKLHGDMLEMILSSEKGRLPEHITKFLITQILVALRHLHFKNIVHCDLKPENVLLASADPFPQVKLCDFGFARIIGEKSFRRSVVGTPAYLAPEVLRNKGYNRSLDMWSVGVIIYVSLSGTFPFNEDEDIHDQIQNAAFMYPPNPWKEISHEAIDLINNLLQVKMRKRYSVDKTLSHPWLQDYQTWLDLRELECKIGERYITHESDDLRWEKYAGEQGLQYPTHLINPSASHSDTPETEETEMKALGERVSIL
# GALR2 agonist – agonists of human galanin receptor 2 (GALR2) | GALR2-expressing cells, agonist activation read-out | activation, %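 (tested at 5 µM)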 | actives 0.48% (n = 140,000) | AID 803;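 active means above mean plus 3 SD of all compounds, about 5% in these data, not always enough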;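 further: 0% = vehicle buffer wells and 100% = reference agonist at full effect; tested in CHO reporter cells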
# Insulin prom inh cell count – further read-out of Insulin prom inh, marked with its call; normalized cell count, %; measured here: cell count, toxicity; reference of the scale not given here;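 cells exposed to compound for 48 h; stained nuclei by imaging scaled within each plate; lower means fewer cells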
# HSV augment primary fold – second read-out of HSV augment, no call of its own (marks repeat the call); fold increase; compound at 10 µM; measured here: primary screen fold increase 10 uM; tested in PC3 cells;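 GFP signal in the first replicate; 1 = infected wells without compound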
# * hit, by the source's call; i = inactive; ? = inconclusive; · = not tested or not shown; & = joins results of further samples.
SMILES,RGS16-Gao,Insulin prom inh,Insulin prom inh cell count,HSV augment,HSV augment primary fold,PKD1 inh,GALR2 agonist
O=C(NCCOCc1ccccc1)C(c1ccccc1)c1ccccc1,102,·,·,i,1,-3,·
Nc1c(C(=O)N/N=C/c2ccc(Cl)cc2)cnn1-c1ccccc1,100,·,·,i,0.99,·,·
COc1ccc(-c2nnc3sc(-c4ccco4)nn23)cc1OC,97,·,·,i,0.99,-15,-0.7
CCN(CC)CCCN(C(C)=O)c1nc(-c2cc(OC)ccc2OC)cs1,96,-42,141,i,0.75,-4,-1.0
COc1ccc(CCNC(=O)COC(=O)COc2ccc(C#N)cc2)cc1,99,·,·,i,0.98,4,·
COc1cc(CNCCCO)ccc1OCC(=O)NC(C)(C)C,95,62,97,i,0.94,2,·
O=C(c1csc2ccccc12)N1CCN(c2ccc(Cl)c(Cl)c2)CC1,105,40,135,i,0.88,-16,-1.8
CCNC(=O)C1CCN(S(=O)(=O)c2ccc(F)cc2)CC1,102,·,·,i,0.8,-10,-0.9
CCc1ccc(-c2cn(C3CCCCC3)c(=S)[nH]2)cc1,101,0,80,i,0.92,6,·
O=C(c1ccccc1S(=O)(=O)NCc1ccccc1)N1CCCCC1,101,·,·,i,1.1,-18,·
CSCCC(NS(=O)(=O)c1ccc(Cl)cc1)C(=O)OCC(=O)N1CCOCC1 (stereo not drawn),106&117,33,126,i,0.72,-9,-3.0
C/C=C(\C)CN1CCCC(CO)(Cc2ccccc2)C1 (stereo not drawn),101,·,·,i,1.1,-2,·
O=C(c1ccc(S(=O)(=O)c2cccc(Cl)c2)c([N+](=O)[O-])c1)N1CCN(Cc2ccccc2)CC1,102,3,130,i,0.66,-4,0.4
CC1CCC2=NN(C(=O)c3ccco3)C(O)(C(F)(F)F)C2C1 (stereo not drawn),103,·,·,i,1,4,·
COc1ccc(C2CC(c3ccccc3)=NN2C(=O)c2cccs2)cc1 (stereo not drawn),101,-21,77,i,0.95,-11,-1.6
c1ccc2c(CCNc3ncnc4nc[nH]c34)cccc2c1,100,-276,67,i,0.78,0,-3.5
Cc1ccc2nsnc2c1NC(=O)Cc1ccc(Cl)cc1,99,-43,99,i,1,1,·
O=C(NC1CCCCCC1)C1CCCN(S(=O)(=O)c2cccs2)C1 (stereo not drawn),103,3,103,i,0.98,-8,-1.6
O=C(CNC(=O)Cc1ccccc1)NCC(=O)OCC(=O)c1ccc(Cl)cc1,158,·,·,i,1.1,6,0.0
Cc1ccccc1Nc1nnc(C)c(=O)n1N,103,·,·,i,1,-6,-0.9
CCOC(=O)N1CCN(CCC(=O)Nc2ccc(OC(F)(F)F)cc2)CC1,100,9,98,i,1,-6,-0.5
Cc1cc(N2CCCC2=O)ccc1S(=O)(=O)N1CCOCC1,84,39,86,i,0.94,-7,·
CCc1nc2ccccc2c(C(=O)OCC(=O)Nc2cccc(S(=O)(=O)N3CCOCC3)c2)c1C,86,33,87,i,0.73,-8,0.1
O=C(Cc1ncc(C(F)(F)F)cc1Cl)N1CCN(c2ccc(F)cc2)CC1,101,-14,88,i,0.8,-1,-0.1
Fc1ccc(-c2nc3nc4ccccc4nc3n2Cc2ccco2)cc1,87,8,76,i,1,4,-2.1
# The list continues.
SMILES,RGS16-Gao,Insulin prom inh,Insulin prom inh cell count,HSV augment,HSV augment primary fold,PKD1 inh,GALR2 agonist
CC1(C)CC(=O)C(N=Nc2cccnc2)=C(O)C1,116,·,·,i,0.98,·,·
CC(=O)c1cc2c(cc1NC(=O)CSc1nnc(C)s1)OCO2,98,22,104,i,0.92,-10,-1.7
Cc1ccc(NC(=O)C(=O)c2cn(CC(=O)N3CCCCC3)c3ccccc23)cc1,100,·,·,i,1,1,-2.0
Cn1c(=O)cc(OCCCC(=O)N2CCCCC2)c2ccccc21,92,-3,41,i,0.9,-4,-1.7
Cc1ccsc1/C=N/NC(=O)c1cccnc1,112,·,·,i,0.94,·,·
COc1ccc(CNC(=O)C/C(C)=N/NC(=O)C23CC4CC(CC(C4)C2)C3)cc1,107,0,134,i,1,-2,·
COC(=O)c1c(NC(=O)c2ccc(C)c(S(=O)(=O)Nc3ccccc3C)c2)sc2c1CCCC2,103,·,·,i,0.66,2,-1.2
COc1cc(C)c(S(=O)(=O)N2CCCC2)cc1C(C)C,96,·,·,i,1.1,-7,·
O=c1[nH]nc(SCCS(=O)(=O)c2ccc(F)cc2)n1-c1ccc2c(c1)OCCO2,109,·,·,i,0.95,·,·
Cn1c(=O)oc2cc(S(=O)(=O)N3CCc4ccccc4C3)ccc21,104,·,·,i,0.93,-13,·
CCCCC1=CC2=C(c3ccco3)C(=O)C(C)(OC(=O)c3ccc(OC)cc3)C(=O)C2=CN1CCCN(CC)CC (stereo not drawn),95,·,·,i,1.3,·,·
Cc1ccc(COC(=O)c2nn(C)c(=O)c3ccccc23)cc1,100,-58,125,i,0.78,5,·
C=CCC(CC)C(=O)NC(=O)N1CCCc2ccccc21 (stereo not drawn),86,·,·,i,1.3,·,·
O=C(CN1CCCCC1)Nc1ccccc1Oc1ccccc1,99,·,·,i,1,·,·
O=C(c1cn(-c2ccccc2)nc1-c1cccs1)N1CCN(c2ccc(F)cc2)CC1,89,-3,88,i,0.79,-1,-1.7
Cc1ccccc1NC(=O)NCCCN1CCN(c2ccccc2)CC1,103,13,116,i,0.88,3,-2.4
COc1ccc(C2c3c(ncn(Cc4ccco4)c3=N)Oc3ccc4ccccc4c32)cc1 (stereo not drawn),100,·,·,i,0.99,-7,0.8
COc1cc(/C=C(\C#N)C(=O)Nc2cccnc2)ccc1OC(C)C,102,·,·,·,·,-8,-1.9
Cc1ccc(C(=O)NC(=S)/C=C2\N(C)c3ccccc3C2(C)C)cc1,107,·,·,?,·,2,-1.3
O=C(N/N=C/c1cccs1)C1CC(=O)N(c2ccccc2)C1 (stereo not drawn),102,-6,53,i,0.89,-2,-1.5
O=C(CN1CCOCC1)Nc1ccccc1Sc1ccccc1,113,29,65,i,1,9,-1.8
O=C(Nc1ccc(Cl)cc1)N(Cc1cccs1)Cc1cccs1,105,6,95,i,1,-1,-2.0
O=C(NCc1ccccn1)C(=O)NN=C1CCCCCCC1,94,-8,74,i,0.86,-6,·
CN1C(=O)[C@@H]2[C@@H]3C[C@@H]([C@H]4ON=C(c5ccc(Cl)cc5Cl)[C@@H]34)[C@@H]2C1=O,102,·,·,i,1.1,1,-0.3
COc1cc2[nH]c(=O)n(CCC(=O)NCCCN3CCN(c4ccccc4F)CC3)c(=O)c2cc1OC,101,14,115,i,0.9,5,·

# 7 of these compounds, set out differently.
Compound	RGS16-Gao	Insulin prom inh	Insulin prom inh cell count	HSV augment	HSV augment primary fold	PKD1 inh	GALR2 agonist
COc1cc(C)c(S(=O)(=O)N2CCCC2)cc1C(C)C	96	·	·	i	1.1	-7	·
Cc1ccc(C(=O)NC(=S)/C=C2\N(C)c3ccccc3C2(C)C)cc1	107	·	·	?	·	2	-1.3
CCCCC1=CC2=C(c3ccco3)C(=O)C(C)(OC(=O)c3ccc(OC)cc3)C(=O)C2=CN1CCCN(CC)CC (stereo not drawn)	95	·	·	i	1.3	·	·
Cc1ccc(NC(=O)C(=O)c2cn(CC(=O)N3CCCCC3)c3ccccc23)cc1	100	·	·	i	1	1	-2.0
O=C(CN1CCOCC1)Nc1ccccc1Sc1ccccc1	113	29	65	i	1	9	-1.8
Cn1c(=O)cc(OCCCC(=O)N2CCCCC2)c2ccccc21	92	-3	41	i	0.9	-4	-1.7
O=C(N/N=C/c1cccs1)C1CC(=O)N(c2ccccc2)C1 (stereo not drawn)	102	-6	53	i	0.89	-2	-1.5

# More structures:
SMILES,RGS16-Gao,Insulin prom inh,Insulin prom inh cell count,HSV augment,HSV augment primary fold,PKD1 inh,GALR2 agonist
Cc1ccc(C(=O)N/N=C/c2ccc(-c3ccccc3[N+](=O)[O-])o2)cn1,97,·,·,i,1.1,-3,-1.7
CCC(=O)Nc1nc2ccccc2n1Cc1ccc(C)cc1,99,-39,54,i,0.88,-8,0.0
CC1=C(C)CC2C(=O)N(Cc3ccccc3)C(=O)C2C1 (stereo not drawn),93,13,68,i,1.1,-6,-2.7
CCOc1ccc(C(=O)Nc2nncs2)cc1OCC,99,-57,90,i,0.69,3,-2.1
COC(=O)Nc1ccc2c(c1)N(C(=O)CCN1CCN3CCCC3C1)c1ccccc1CC2 (stereo not drawn),-70&104,-6,196,i,0.95,11&6,-1.6
CC1CCCCN1CCNC(=O)C1CCN(S(=O)(=O)c2cccc3cccnc23)CC1 (stereo not drawn),115,·,·,i,1.1,-4,0.2
CCc1cc2c(=O)c(-c3nc4ccccc4n3C)c(C)oc2c(CN(CC)CC)c1O,101,50,67,i,0.95,0,-2.0
Cn1c(CNc2ccc(F)cc2)nnc1SCC(=O)NNC(=O)Cc1ccccc1,105,·,·,i,1,-9,·
Cc1ccc2c(c1)[C@@H]1CN(C)CC[C@@H]1N2S(=O)(=O)c1ccc([N+](=O)[O-])cc1,105,-11,118,i,1,-4,-0.3
CCOc1cc(C(N)=O)cc(OCC)c1OCC,100,-10,100,i,0.92,-4,-1.2
CCOC(=O)C1CCN(CC(O)COc2ccc(C(C)(C)CC)cc2)CC1 (stereo not drawn),81,-44,48,i,0.92,-2,0.1
O=C(COc1ccc(Cl)cc1Cl)NN=C1CCCCC1,101,28,131,i,1,-10,-1.8
O=C(/C=C/c1ccccc1)NC(NC(=S)Nc1ccc(C(=O)O)cc1)C(Cl)(Cl)Cl (stereo not drawn),92,·,·,i,0.87,-2,-1.5
O=C(c1cccc(F)c1)N1C2C=CC(C2)C1(C(F)(F)F)C(F)(F)F (stereo not drawn),94,·,·,i,0.99,-3,0.1
O=C(NNc1nc2cc3c(cc2s1)OCCO3)c1ccccc1,93,-5,99,i,1,-3,·
O=S(=O)(CCN1CCN(c2ccccn2)CC1)c1ccc(Cl)cc1Cl,106,·,·,i,0.96,·,·
O=C(O)c1cc(N/N=C/c2ccc(OCc3ccccc3)cc2)ccc1Cl,100,60,103,i,0.93,4,·
Cc1ccc2c(c1)c(C)c(C)n2CC(O)Cn1nc(C)c(Br)c1C (stereo not drawn),72,-52,70,i,0.87,-13,7.7
CS(=O)(=O)N(CC(=O)N1CCCCC1)c1ccc(Cl)c(C(F)(F)F)c1,100,0,100,i,1,-3,-1.6
Fc1ccc(/C=N/n2c(-c3cccs3)n[nH]c2=S)cc1,101,-13,71,i,0.83,-5,-2.5
CCOC(=O)C1NN=C(C(=O)c2ccccc2)C1c1ccc(Cl)cc1 (stereo not drawn),105,·,·,i,1.1,0,·
O=C(CNC(=O)C(c1ccccc1)c1ccccc1)N/N=C\c1cccc(O)c1,97,·,·,i,1.3,·,·
Clc1nssc1=Nc1ccccc1,92,-71,80,i,0.88,-3,·
CCCCCCSc1nsc(N)n1,104,-11,90,i,1,3,-0.2
COCc1cc(C)nc(OCC(=O)N/N=C/c2ccc(O)cc2O)c1C#N,31,64,74,·,·,-2,·
# (more compounds)
SMILES,RGS16-Gao,Insulin prom inh,Insulin prom inh cell count,HSV augment,HSV augment primary fold,PKD1 inh,GALR2 agonist
CN(C)c1cccc(C(=O)NNC(=S)NC2CC3CCC2C3)c1 (stereo not drawn),111,-7,119,i,0.87,-1,·
Cc1nc(NS(=O)(=O)c2ccccc2C)c2c3c(sc2n1)CCC3,103,3,111,i,0.99,-3,-1.9
COC(=O)COc1ccc(S(=O)(=O)N2CCN(c3ccccc3)CC2)cc1,101,11,96,i,0.94,-12,·
CCCN1/C(=C(/C#N)C2=NS(=O)(=O)c3ccccc32)N(C)c2ccccc21,99,-42,121,i,0.94,12,-1.3
CCOP(=O)(OCC)C(NC(=O)c1cccs1)C(F)(F)F (stereo not drawn),108,20,128,i,0.95,4,·
O=C1Nc2ccc(F)cc2C12Nc1ccccc1-c1nnc(SCc3ccccc3)nc1O2 (stereo not drawn),101,75*,91*,i,0.95,9,-2.1
Cc1oc2c(C)c3oc(=O)c4c(c3cc2c1C)CCC4,102,-5,149,i,0.92,-3,8.7
COc1ccc(NC(=O)c2ccccc2C)c(OC)c1,101,-25,75,i,0.93,-8,-0.8
CC(C)OC(=O)CSc1ncnc2c1cnn2Cc1ccccc1,95,36,112,i,1,-16,-2.2
COc1cccc(C2CC(=O)Nc3n[nH]c(-c4ccccc4)c32)c1OC (stereo not drawn),96,·,·,i,0.85,·,·
Cc1cccc(-c2noc(CCCC(=O)N3CCOCC3)n2)c1,110,-36,90,i,0.96,3,0.5
Cn1cc(CN2CCN(c3ncccn3)CC2)c(-c2cccc(Cl)c2)n1,101,·,·,i,0.94,-6,·
